Screening results deposited in PubChem BioAssay by several laboratories.
PrP 5UTR inh = suppresses PrP 5' UTR mRNA reporter expression; cell-based PrP 5' UTR mRNA reporter, plate reader; inhibition, % (no concentration beside the values); 340,000 compounds, 0.35% hits; AID 488862;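 active = every replicate at 50% or more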;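 note: 0 = median of the neutral control wells; tested in H4 reporter cells; numbers are from one replicate; inactives centre near -14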
Mtb hypoxia rep = inhibitors of hypoxia-regulated fluorescent reporter in Mycobacterium tuberculosis. 300,000 compounds, 0.1% hits. M. tuberculosis hypoxia-regulated fluorescent reporter, fluorescence. AID 1159583. fluorescence inhibition, % (test concentration not listed);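 active = 35 to 45% if threefold the growth effect, above 45% if 1.5-fold the growth effect; inactive = the rest, general growth blockers included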;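 note: wells of about 50 µL received 100 nL stock; 0% = vehicle wells and 100% = reference inhibitor wells; whole bacteria with a GFP reporter of the hypoxia response; strong numbers were not always called active; many hits fall short of the cut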
BJeLR lethal = BJeLR cell viability loss. inhibition, % (no concentration beside the values). BJeLR (HRASV12) viability, CellTiter-Glo ATP luminescence, 48 h; reference of the scale not given here. 300,000 compounds, 0.17% hits;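 active = replicate mean above 50%; inconclusive = above 50% but judged a plate artefact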;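 note: 50 nL library stock added to about 25 µL; numbers are from one replicate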
Bead autofluor = compound fluorescence in toxin protease inhibitor counterscreen. compound autofluorescence counterscreen, microsphere flow cytometry; hits give high values. fluorescence intensity (no concentration beside the values). 360,000 compounds, 3.1% hits. AID 624483;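 active = at least 3 SD above the mean of all compounds, about 16000 in these data; inconclusive = too few beads counted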;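 note: 100 nL of 1 mM stock went into each well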
Sa RN4220 lethal = S. aureus RN4220 growth inhibition; OD600, 16 h; inhibition, % (concentration not given with the values); 330,000 compounds, 0.33% hits; AID 1259311;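 active = z-score of -3 or lower and OD600 up to 0.18 on both plates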;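 note: plate controls were untreated cells for no effect and reference antibiotic for full effect; stock transfer was 100 nL into about 80 µL; one replicate is shown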
ugtP null kill = growth inhibition of S. aureus ugtP deletion strain. S. aureus RN4220 ugtP deletion, OD600 growth, 16 h; some inactives read as strong as hits. 330,000 compounds, 0.54% hits. AID 1259309. growth inhibition, % (no concentration beside the values);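 active = z-score under -3 and OD600 up to 0.15 on both plates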;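 note: plate controls were untreated wells for no effect and antibiotic for full effect; wells of about 80 µL received 100 nL stock; the first replicate is given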
Mtb hypoxia rep growth = also measured in Mtb hypoxia rep; calls as there; growth inhibition, %; measured here: M. tuberculosis growth (absorbance);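 0% = vehicle and 100% = reference antibiotic; read after six days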
Starred values were filed as active, the others as inactive; ? = inconclusive; nt = not tested or not shown.

entry	compound	Mtb hypoxia rep	ugtP null kill	Mtb hypoxia rep growth	Bead autofluor	PrP 5UTR inh	BJeLR lethal	Sa RN4220 lethal
1	O=C(COC(=O)CC1CCCC1)Nc1ccc(Br)cc1F	3	4	7	3054	-12	nt	3.4
2	O=C1C2CC=CCC2C(=O)N1c1ccc(NCCc2ccccc2)c([N+](=O)[O-])c1 (stereo unspecified)	3	-1	-2	2078	-31	2	-0.6
3	Cc1ccc(NC(=O)CN(C)C(=O)COc2ccc(C(=O)c3ccc(F)cc3)cc2)cc1	-8	-4	-6	2514	-2	-15	2.2
4	CN(Cc1nc2ccccc2n1C)c1ccccc1	10	3	4	nt	1	1	-1.4
5	COc1cccc(N2CCN(Cc3ncc(-c4ccccc4)o3)CC2)c1	10	12	6	3894	-39	-2	2.9
6	O=C(O)CN1C(=O)CC(c2ccccc2)CC1=O	-2	1	17	3836	1	-4	-0.9
7	COc1ccc(C(=O)C2CCCN(C(=O)c3cc(C4CC4)[nH]n3)C2)c(C)c1 (stereo unspecified)	0	5	8	5220	-15	0	2.3
8	CCOc1ccc(C(=O)NCCCN2CCCC2=O)cc1	nt	2	nt	3040	-29	2	2.1
9	Cc1ccc(NC(=O)c2ccc(OCc3c(C)noc3C)cc2)nc1	2	1	-5	16600*	-28	nt	1.4
10	O=C(NCC(c1ccco1)N1CCN(c2ccccc2)CC1)c1ccco1 (stereo unspecified)	-2	6	2	5754	-40	2	3.4
11	CCS(=O)(=O)N1CCC(C(=O)NCCN2CCOCC2)CC1	8	4	2	7761	-24	10	0.9
12	O=C1CN(C(=O)c2ccccc2F)C(c2ccccc2)c2cc(F)ccc2N1 (stereo unspecified)	2	-1	9	3725	-10	3	1.9
13	COc1ccccc1NC(=O)C1CC(=O)N(c2ccc(F)cc2)C1 (stereo unspecified)	nt	12	nt	3530	-5	4	1.3
14	Cc1ccc(NCc2ccco2)cc1C	3	2	7	4891	-43	nt	18
15	CN(Cc1ccc(-n2cccn2)cc1)Cc1cn(C)nc1-c1ccccc1F	0	8	7	4395	-8	-2	3.7
16	COc1cc(NC(=O)CSc2nc(C)cc(C)n2)cc(OC)c1OC	2	2	-1	4063	-43	-9	4.4
17	COC(=O)c1sc2nc3c(cc2c1N)COC(C)(C)C3	12	4	8	12814	-141	-8	7.9
18	COc1ccc(NC(=O)c2ccsc2NC(C)=O)cc1	-1	-3	6	4050	-21	2	5.8
19	COc1ccccc1NC(=O)CSc1nnc(CSc2nc(C)cc(C)n2)o1	-7	1	-5	4071	-18	-1	-0.8
20	O=S(=O)(c1ccc(NCCCO)nc1)N1CCOCC1	4	6	-1	nt	-10	nt	2.2
21	O=S(=O)(NCCc1ccncc1)c1ccc(S(=O)(=O)N2CCCCCC2)cc1	-2	-6	6	11230	-19	-7	2.0
22	COc1ccc(Cc2nnc(SCC(=O)Nc3ccc(C)c(C)c3)o2)cc1OC	-10	-5	-3	3662	-3	-9	-3.4
23	CCCn1nnc(NC(=O)c2ccc(-c3cccc(Cl)c3)o2)n1	16	-7	8	4275	-12	-15	11
24	Cc1cc(NC(=O)Cc2ccccc2)ccc1NC(=O)c1cccs1	8	-2	-2	4356	-24	nt	4.4
25	COc1ccc(-c2nc3ccccc3nc2-c2ccccc2)cc1	-2	39	10	5200	-31	4	-1.2

Two of the compounds above, with two lines to a compound:
Each structure is followed by: Mtb hypoxia rep	ugtP null kill	Mtb hypoxia rep growth	Bead autofluor	PrP 5UTR inh	BJeLR lethal	Sa RN4220 lethal
5	COc1cccc(N2CCN(Cc3ncc(-c4ccccc4)o3)CC2)c1
 : 10	12	6	3894	-39	-2	2.9
6	O=C(O)CN1C(=O)CC(c2ccccc2)CC1=O
 : -2	1	17	3836	1	-4	-0.9

(continued)
entry	compound	Mtb hypoxia rep	ugtP null kill	Mtb hypoxia rep growth	Bead autofluor	PrP 5UTR inh	BJeLR lethal	Sa RN4220 lethal
26	c1ccc(Nc2nc(-c3ccncc3)nc3ccccc23)cc1	2	-1	-1	10676	-25	2	2.8
27	c1ccc(-c2nnnn2-c2ccccn2)cc1	7	6	0	4340	-26	nt	2.7
28	COc1ccc2c(CCNC(=O)/C=C/c3ccc(OC)c(OC)c3)c[nH]c2c1	-1	7	11	3924	-14	-5	2.0
29	O=C(NCC1CCCO1)c1ccc(S(=O)(=O)N2CCC(c3nc4ccc(Cl)cc4[nH]3)CC2)cc1 (stereo unspecified)	-2	6	12	11042	-4	-2	0.0
30	COc1ccc(NC(=S)NCc2ccc3c(c2)cc(C)n3C)cc1	-2	-2	1	1884	-6	-4	2.3
31	Cc1cc(C(=O)CCl)c(C)n1-c1c(C)n(C)n(-c2ccccc2)c1=O	26	-1	31	5538	3	-3	1.6
32	COc1ccc(C(=O)C[n+]2ccc(N(C)C)cc2)cc1	3	11	-2	5474	-21	13	3.8
33	Cc1ccc(C(=O)OCC2OC3OC(C)(C)OC3C2O)cc1 (stereo unspecified)	-12	-5	-4	7552	-23	-14	-5.4
34	CCOc1ccc2oc(C(=O)OCC(=O)NCc3ccc(OC)cc3)c(C)c2c1	32*	11	69*	4061	-15	nt	7.4
35	CCC1CCCCN1CCCNC(=O)CN1C(=O)COc2ccc(S(=O)(=O)N3CCC(C)CC3)cc21 (stereo unspecified)	17	12	13	5552	-17	-7	4.9
36	COC(=O)c1ccc(/C=N\n2c(C)nnc2C)cc1	nt	nt	nt	2601	-7	-9	nt
37	O=C(Nc1ccc(NC(=O)c2cccs2)c(Cl)c1)c1cccs1	5	1	3	4651	-73	1	2.7
38	Cc1ccc(CN2CCN(/N=C/c3cccn3C)CC2)c(C)c1	nt	nt	nt	2844	-15	3	nt
39	Cc1ccc(S(=O)(=O)NC2(C(F)(F)F)NC(=O)N(CCc3ccccc3)C2=O)cc1 (stereo unspecified)	7	4	3	2235	-12	-1	2.8
40	CC(C)C(NC(=O)c1ccccc1F)C(=O)OCC(=O)c1ccc(F)cc1 (stereo unspecified)	9	4	4	2715	-27	-1	1.5
41	C#CC1(O)CCC2C3CCC4=CC(=NOCC(=O)NCC(=O)NC(C(=O)O)C(C)C)CC[C@]4(C)C3CC[C@@]21C (stereo partly specified)	-7	-1	-13	nt	nt	nt	-4.5
42	CCCCn1c(N)c(N(CC(C)C)C(=O)c2oc3c(Cl)cccc3c2C)c(=O)[nH]c1=O	10	6	5	5305	-28	0	6.5
43	CCCn1c(N)c(C(c2ccc(C(=O)OC)cc2)N2CCN(c3ccccc3)CC2)c(=O)[nH]c1=O (stereo unspecified)	8	2	10	3763	-4	-7	-0.1
44	CCCCn1c(N)c(N(CC(C)C)C(=O)Cc2ccc(S(=O)(=O)N3CCOCC3)s2)c(=O)[nH]c1=O	-8	6	2	4433	-15	nt	9.7
45	Clc1ccc(Oc2nc(N3CCOCC3)nc(N3CCOCC3)n2)c(C2CCCCC2)c1	nt	32	nt	2535	-5	3	-5.9
46	CN(C)c1ccc(/C=C(\NC(=O)c2ccccc2)C(=O)NCCCn2ccnc2)cc1	1	-2	-4	6509	-7	-7	5.5
47	Cc1ccc(CNC(=O)c2cc3c(=O)n(C)c4ccccc4c3n2C)cc1	nt	7	nt	6434	-9	2	0.7
48	COc1ccccc1/C=N/NC(=O)CO	nt	nt	nt	4276	-21	0	nt
49	CCn1c2ccc(Cl)cc2c2nc3ccccc3nc21	6	25	0	nt	nt	7	-4.8
50	Cc1ccc(NC2CCCN(C(=O)c3ccccc3-c3ncc[nH]3)C2)cc1C (stereo unspecified)	-2	2	12	4419	-9	-4	2.0
51	S=c1nc(C2CCCCC2)n(-c2ccccc2)[nH]1	11	24	-5	4138	-25	4	3.3
52	COc1ccc(NC(=O)CSc2ccccc2)cn1	1	0	1	4383	-48	1	6.4
53	O=C(NCCCN1CCOCC1)c1ccccc1N1C(=O)[C@@H]2Cc3c([nH]c4ccccc34)C(c3ccc(F)cc3)N2C1=O (stereo partly specified)	nt	5	nt	4940	-17	3	-1.9
54	CC(OC1=CC(=O)CCC1)C(=O)c1ccccc1 (stereo unspecified)	1	-9	12	20377*	-5	6	-1.1
55	COC(=O)C1=C(C)Nc2nnnn2C1c1ccccc1Cl (stereo unspecified)	nt	-4	nt	4712	-5	-8	2.3
56	CC[n+]1cccc(-c2nc3ccccc3s2)c1	10	9	12	2777	-8	-5	2.5
57	CN(C)c1oc(-c2ccc(OCc3ccccc3)cc2)nc1C#N	5	25	-1	2356	-58	2	15
58	COc1cc(OC)c2ccc(=O)oc2c1C(CCN1CCOCC1)c1ccc2c(c1)OCO2 (stereo unspecified)	1	-5	2	3731	-11	nt	4.3
59	O=C(NC1CCCCC1)N(CCN1CCOCC1)Cc1cc2cc3c(cc2[nH]c1=O)OCCO3	5	-1	10	19967*	-31	-1	0.4
60	CCN(CC)CCO	11	8	12	5663	-11	nt	5.4
61	CC(/C=C/c1ccccc1)=N/NC(=O)c1cnccn1	nt	nt	nt	9642	-12	4	nt
62	CCCCn1c(N)c(N(CCOC)C(=O)c2cc(-c3ccc(OC)cc3)nc3ccccc23)c(=O)[nH]c1=O	6	0	0	5532	2	-4	2.5
63	CCOC(=O)C1=C(O)C(=O)N(c2ccc(S(N)(=O)=O)cc2)C1c1ccc(Cl)cc1 (stereo unspecified)	14	-7	16	2986	-15	-3	5.0
64	O=C(/C=C/c1ccco1)NCC(=O)N/N=C/c1ccccc1[N+](=O)[O-]	nt	nt	nt	2089	-9	-4	nt
65	N#CC12CCCCC1CC1CCCCC1(C#N)N2CCO (stereo unspecified)	nt	16	nt	4318	3	-9	1.5
66	O=C(CC1C(=O)N(c2ccccc2)C(=O)N1C1CCCCC1)Nc1ccccc1 (stereo unspecified)	5	9	4	3302	-10	-5	9.5
67	Cc1cc(C)cc(NC(=S)N(CCN2CCCCC2)Cc2ccco2)c1	2	8	3	4550	36	10	0.5
68	Cc1cccc(NC(=O)CN2C(=O)CSC2=O)c1	-1	-4	4	3956	-32	0	4.4
69	COc1ccc(Nc2nnc(C)c(=O)[nH]2)c(OC)c1	1	8	-2	6305	-1	-1	3.3
70	COC(=O)c1cc(Br)ccc1NC(=O)CSCc1c(C)noc1C	2	7	-1	3649	-20	nt	12
71	CC(C)Nc1nc(C#N)nc(NC(C)C)n1	5	-5	5	9727	-23	-4	-0.8
72	O=C(COc1ccccc1)NCC(c1ccco1)N1CCN(c2ccc(F)cc2)CC1 (stereo unspecified)	2	16	2	4172	2	7	1.3
73	N#Cc1cc2c(nc1SCC(=O)N1CCOCC1)CCCCC2	3	3	5	12201	46	7	0.9
74	COc1ccccc1NC(=O)Cn1cnc2c(cnn2-c2ccccc2)c1=O	14	0	14	8740	-25	-1	1.3
75	CC(C)(C)c1ccc(C(=O)NCCC(=O)Nc2ccc(S(=O)(=O)Nc3nccs3)cc2)cc1	18	3	21	?	-2	nt	2.3

Remaining list, next part.
entry	compound	Mtb hypoxia rep	ugtP null kill	Mtb hypoxia rep growth	Bead autofluor	PrP 5UTR inh	BJeLR lethal	Sa RN4220 lethal
76	O=C(CCC1CCCCC1)NCCN1C2=NC[C@H](Cc3ccc(O)cc3)N2C[C@H]1Cc1ccc(O)cc1	nt	nt	nt	4486	1	-15	nt
77	CCOC(=O)c1ccc(NC(=O)C2CC(=O)N(c3ccc4c(c3)OCCO4)C2)cc1 (stereo unspecified)	-1	-5	-2	3982	-40	nt	-0.9
78	Cc1cc(Br)ccc1NC(=O)CNC(=O)CN(C)C1CCS(=O)(=O)C1 (stereo unspecified)	4	6	13	6096	-18	nt	5.9
79	COc1ccc(S(=O)(=O)N2CCOCC2)cc1C(=O)N1CCCCCC1	2	10	-4	4159	-15	7	3.8
80	Cc1ccc(-n2c(CSc3nc(C)cc(C)n3)nnc2SCC(=O)N2CCCC2)cc1	2	-2	7	8426	-26	13	-1.9
81	N#CCCNc1ccc(OCCC#N)cc1	5	-3	5	3448	-8	-1	-15
82	Cc1ccc(-n2nnnc2SCC(=O)N2CCc3ccccc3C2)cc1	-2	-9	6	10682	-12	-6	0.9
83	CCOC(=O)CN1C(=O)CSc2ccc(S(=O)(=O)N3CCOCC3)cc21	9	7	2	4621	8	-17	2.1
84	NS(=O)(=O)c1ccc(NC(=S)NCc2cccc(Cl)c2)cc1	11	-3	-1	9547	-19	11	1.9
85	O=C(NN=Cc1ccccc1Cl)c1ccc(F)cc1	nt	-4	nt	nt	nt	nt	7.7
